EPAC2 antag: human EPAC2 antagonism, validation | Q8WZA2 | EPAC2 Rap1B BODIPY-GDP exchange, fluorescence | Potency, µM (top dose mostly 112 µM), inactives show at the highest dose activity, negative = inhibition, usual class: inhibitors | 16,000 tested, 1.7% active; active means well fitted inhibition curve with a large enough effect; inconclusive means small, poorly fitted or top-dose-only effect; inactive means no such curve, though single readings can be large or run the other way;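 further: 100% = activation by cAMP agonist control; nearly all actives have a fitted effect of over 40% in size; the record reuses the description of the EPAC1 agonist screen; inactives centre near -10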
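Fluorescent exchange read-out: 100 nM EPAC2 with 250 nM RAP1B–BODIPY-GDP and 50 uM GDP; BODIPY-GDP release lowers fluorescence. Read at 480/540 nm every 5 min for 30 min at room temperature; normalized to 6.5 mM cAMP.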
Calls only; ? = inconclusive. Potency means the concentration at half of the fitted maximal effect. Not all compounds are listed; the hit share may differ from the screen's.

SMILES	EPAC2 antag
CCC1C(=O)OCC1Cc1cncn1C (centres undefined)	?
